# TRPV1 PAM = potentiators of human vanilloid receptor 1 (TRPV1) | Q8NER1 | TRPV1-expressing cells, Fluo-8 calcium influx, capsaicin EC20 potentiation; host cell line not named in the record; control for the full effect not named in the record | actives 0.02% (n = 320,000) | potentiation, % at 8.33 µM; active means potentiation above 80%; inconclusive means 30% to 80%; inactive means below 30%; note: 0% is about no effect
# Target sequence (Q8NER1 whole entry, looked up): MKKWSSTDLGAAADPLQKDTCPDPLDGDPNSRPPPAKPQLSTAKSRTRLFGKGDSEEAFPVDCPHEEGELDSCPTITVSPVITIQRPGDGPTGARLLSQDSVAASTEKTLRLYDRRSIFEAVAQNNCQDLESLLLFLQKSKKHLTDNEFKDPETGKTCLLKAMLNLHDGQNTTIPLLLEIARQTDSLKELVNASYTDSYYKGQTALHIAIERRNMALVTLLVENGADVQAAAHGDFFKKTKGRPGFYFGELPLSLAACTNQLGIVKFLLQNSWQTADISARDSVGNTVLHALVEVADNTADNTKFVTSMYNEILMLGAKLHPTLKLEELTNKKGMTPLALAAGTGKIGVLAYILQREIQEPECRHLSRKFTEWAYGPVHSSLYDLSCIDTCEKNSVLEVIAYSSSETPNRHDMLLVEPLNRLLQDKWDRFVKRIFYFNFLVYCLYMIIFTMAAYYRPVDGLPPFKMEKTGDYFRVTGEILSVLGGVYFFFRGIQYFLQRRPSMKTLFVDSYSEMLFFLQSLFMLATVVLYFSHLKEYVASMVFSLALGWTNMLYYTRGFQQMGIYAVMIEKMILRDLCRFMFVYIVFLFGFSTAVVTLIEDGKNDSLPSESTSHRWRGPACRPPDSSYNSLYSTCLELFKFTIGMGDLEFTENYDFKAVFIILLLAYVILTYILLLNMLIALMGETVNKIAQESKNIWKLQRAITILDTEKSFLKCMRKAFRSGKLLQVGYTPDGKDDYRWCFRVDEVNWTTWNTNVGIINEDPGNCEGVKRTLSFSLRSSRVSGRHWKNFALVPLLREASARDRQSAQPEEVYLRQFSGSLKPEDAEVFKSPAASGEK
#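 Fluo-8 calcium influx in TRPV1-expressing cells, kinetic read (ex 480/em 520 nm). Compound added and read 3 min for agonist activity, followed by capsaicin at EC20 final and 2 min further read for enhancement.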
# gsp ag = agonists of gsp mutant (McCune-Albright syndrome); gsp mutant cells, cAMP HTRF, 30 min; control for the full effect not named in the record; Potency, µM (highest dose often 76.9 µM), for the others: at the top dose activation (cAMP increase), most hits filed as activators; actives 0.13% (n = 340,000); AID 624287; active = well fitted activation curve with a large enough effect; inconclusive = small, poorly fitted or top-dose-only effect, or another doubt; inactive = no such curve, though single readings can be large or run the other way; cell line not stated here;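 note: phosphodiesterase inhibitor Ro 20-1724 added with compounds to block cAMP breakdown; potency is the fitted concentration of half-maximal effect; nearly all actives have a fitted effect of over 60% in size; about a fifth of the inactives were tested at one dose only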
#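 Cells in DMEM/10% FBS with G418 were pretreated with compounds in DMSO plus […] (300 uM stock) for 30 min at 37C. cAMP was measured by HTRF (cAMP-d2 plus anti-cAMP antibody-K) after 30 min at room temperature.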
# Menin-MLL FL inh = displaces fluorescein MLL peptide from human menin; Fluorescence polarization, fluorescein-MLL peptide displacement from menin; FP activity change, % at 61.4 µM; AID 1766; 290,000 tested, under 10 active; inconclusive = falling polarisation curve, or a change in total fluorescence; inactive = total fluorescence flat and polarisation flat or rising; no compound was filed as active; the % refers to the polarisation; negative = inhibition;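 note: % of control where 0% means no effect; inhibitors lower the polarisation; unlabelled MLL peptide was the positive control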
# ClpP mod = qHTS Assay for Activators of ClpP. ATP-dependent Clp protease proteolytic subunit (Bacillus subtilis (strain 168)), P80244. purified B. subtilis ClpP, FRET peptide cleavage, 20 min. Potency, µM (series often up to 57.5 µM), for the others: top-dose activity change, negative = active. actives 1.9% (n = 340,000); active = well fitted falling curve with a large enough effect; inconclusive = small, poorly fitted or top-dose-only effect; inactive = no such curve, though single readings can be large or run the other way; note: potency is the fitted concentration of half-maximal effect; the source files actives as falling curves though it sought activators and does not explain the sign; nearly all actives have a fitted effect of over 65% in size; many hits overshoot -100%
# Target sequence (P80244 whole entry, looked up): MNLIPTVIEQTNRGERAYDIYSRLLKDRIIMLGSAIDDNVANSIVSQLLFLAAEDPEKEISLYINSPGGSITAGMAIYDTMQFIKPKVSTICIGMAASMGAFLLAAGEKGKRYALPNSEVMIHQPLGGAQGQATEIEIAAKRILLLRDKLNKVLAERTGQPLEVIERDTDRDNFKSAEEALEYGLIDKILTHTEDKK
#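 FRET quenching reversal measured ClpP activation: 10 microg/mL B. subtilis ClpP at pH 8 with the FRET-FV decapeptide, read at 430 nm after 320 nm excitation. The 20-min minus 0-min signal was scaled between DMSO/no-enzyme wells and ADEP (5.8 microM final).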
# Sfp inh = inhibitors of Bacillus subtilis Sfp phosphopantetheinyl transferase; Q9F4F7; Biochemical Sfp PPTase activity, qHTS; Potency, µM, inactives show max response, negative = inhibition, hits mostly inhibitors; actives 3.5% (n = 310,000); AID 1490; active = well fitted inhibition curve with a large enough effect; inconclusive = small, poorly fitted or top-dose-only effect, or another doubt; inactive = no such curve, though single readings can be large or run the other way;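 note: the enzyme is Sfp with the accession as filed and its product quenches rhodamine fluorescence; potency is the fitted concentration of half-maximal effect; 0% = enzyme reaction without inhibitor and -100% = no enzyme wells; top concentration of the series not given in the record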
#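 Compounds were incubated with enzyme (final 15 nM) for 15 min at room temperature before substrate addition started the reaction. Fluorescence at 525 nm excitation, 598 nm emission was recorded immediately and after 30 minutes.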
# CtBP-E1A inh = CtBP/E1A binding inhibition; AlphaScreen GST-E1A/His-CtBP binding, 1536-well; stronger effect = lower value; control for the full effect not named in the record; activity change, % (no concentration beside the values); actives 0.49% (n = 340,000); in the data active means activity change below about -65%; inconclusive means about -30% to -65%; inactive means above about -30%; note: % is set by controls: 0 for no effect and ±100 for the full control effect; compound concentration not given in the record
#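 Homogeneous bead-based format: GST-tagged E1A captured on glutathione donor beads, His-tagged CtBP on nickel acceptor beads; compounds precede bead addition by 2 h at 37 °C.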
# gsp antagonist = antagonists of gsp mutant (McCune-Albright syndrome); gsp-mutant cells, cAMP HTRF, 30 min; control for the full effect not named in the record; Potency, µM (doses to about 76.9 µM), without a hit: at the top dose activity change, negative = inhibition, actives largely listed as inhibitors; actives 0.4% (n = 340,000); AID 624288; active = falling curve of any shape with a large fitted effect; inconclusive = falling curve, mostly with a smaller effect; inactive = flat or rising curve; cell line not stated here;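 note: intracellular cAMP measured with PDE inhibitor Ro 20-1724 present during compound exposure; potency is the fitted concentration of half-maximal effect; % is set by controls: 0 for no effect and ±100 for the full control effect; nearly all actives have a fitted effect of over 65% in size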
#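 Cells in G418 medium, seeded 16-24 h, 37C; buffer exchange to DPBS + 1 mM CaCl2, 0.5 mM MgCl2, 0.05% BSA; cpds in DMSO + […] (300 uM stock), 30 min 37C; HTRF cAMP detection.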
# * = called active by the depositor; ? = inconclusive; . = not tested or not shown; [ ] = another dose, or the depositor's remark.
SMILES,TRPV1 PAM,gsp ag,Menin-MLL FL inh,ClpP mod,Sfp inh,CtBP-E1A inh,gsp antagonist
Cc1cc(NC(=O)CSc2nc(N)c(NC(=O)c3ccco3)c(=O)[nH]2)no1,11,2%,1.7,-0.4%,?,2,-6%
O=C(/C=C/Nc1ccc(F)cc1F)c1cccs1,-25,-12%,?,-1.6%,?,4,-1%
O=C1OCC2=C1C(c1ccc(F)cc1)c1cc3c(cc1N2)OCCO3 (configuration not stated),13,0%[15.4 µM],-2.6,.,-19%,5,11%
CCN(C(=O)CSc1nc(-c2ccccc2)cn1N)c1c(N)n(Cc2ccccc2)c(=O)[nH]c1=O,5,-32%,.,-4.6%,.,-24,4%
COc1ccc(OC)c(C2C(C(=O)Nc3cccnc3)=C(C)NC3=C2C(=O)CCC3)c1 (configuration not stated),-21,-24%,-1.2,-5.3%,1%,1,-9%
Cc1ccccc1Nc1nc(N)nc(COC(=O)C2CCCCC2)n1,-16,4%,7.4,1.4%,6%,-11,12%
CN1CCN(S(=O)(=O)c2ccc(NC(=S)NC(=O)C(C)(C)C)cc2)CC1,-8,-15%[15.4 µM],3.5,.,-7%,.,-15%
CS(=O)(=O)c1ccc(Cl)c(C(=O)O)c1,-6,-10%,3.0,-0.2%,?,-5,5%
O=C(CN1C(=O)NC2(CCCC2)C1=O)N1CCN(c2ccc(C(F)(F)F)cc2[N+](=O)[O-])CC1,.,-15%,.,-0.3%,.,-7,-7%
C=CCn1c(CCC(=O)O)ccc1-c1ccc(OC)cc1,2,14%,3.1,?,0%,-8,-15%
CC1CC(C)CN(CCCNC(=O)C2CCCN(c3nnc(N4CCCC4=O)s3)C2)C1 (configuration not stated),5,-16%,-0.7,-1.2%,13%,4,8%
Cc1oc(/N=C/c2cccc([N+](=O)[O-])c2)c(C#N)c1C,1,-53%[inhibitor],-7.2,-1.2%,6%,.,0%
CC(=O)NCCc1c[nH]c2ccc(OCc3ccccc3)cc12,.,20%,.,-1.6%,.,.,-4%
COC(=O)[C@@H](NC(=O)c1ccc2c(c1)S(=O)(=O)c1ccccc1C2=O)C(C)C,0,22%[15.4 µM],0.3,.,-5%,0,11%
COc1ccc(C(=O)C[n+]2ccc3ccccc3c2C)cc1,-4,9%[15.4 µM],-19,.,-6%,6,11%
c1ccc(Cn2c3ccccc3c3nnc(SCCN4CCCCC4)nc32)cc1,16,13%[15.4 µM],-0.1,.,20%,6,9%
Cc1ccc(/C(N)=N/OC(=O)c2ccc(Cl)cc2Cl)cc1,-9,4%,0.7,0.0%,9%,3,8%
Cc1nc(-c2ccc(NC(=O)c3ccccc3Br)cc2)cs1,-4,-8%[15.4 µM],3.8,0.7%,-15%,3,-32%
COC(=O)c1ccc(CN2CCN(C(C)C)C(CCO)C2)cc1 (configuration not stated),25,-3%,1.2,1.1%,17%,.,-24%
O=c1c2cc(Br)ccc2[nH]c(=S)n1Cc1ccccc1,-15,5%[15.4 µM],2.2,.,18%,5,-7%
O=C(CCN1C(=O)/C(=C/c2ccccc2Cl)SC1=S)NC1CCCC1,-13,-1%[15.4 µM],-1.4,0.1%,11%,7,9%
N#CCCn1cc(C=O)c(-c2cccs2)n1,-9,13%[15.4 µM],-3.7,.,16%,7,-6%
COc1ccc(S(=O)(=O)Nc2ccccc2C(=O)NN2CCOCC2)cc1OC,.,14%,.,-4.4%,.,-18,8%
O=C(Nc1cccc(F)c1)C1CCCN(S(=O)(=O)c2ccccc2)C1 (configuration not stated),11,-26%,.,0.4%,4%,3,-4%

# Three compounds already listed, ordered by the value under gsp ag, falling.
canonical_smiles	gsp ag	Menin-MLL FL inh	Sfp inh	CtBP-E1A inh
COc1ccc(S(=O)(=O)Nc2ccccc2C(=O)NN2CCOCC2)cc1OC	14%	.	.	-18
Cc1ccc(/C(N)=N/OC(=O)c2ccc(Cl)cc2Cl)cc1	4%	0.7	9%	3
O=C(Nc1cccc(F)c1)C1CCCN(S(=O)(=O)c2ccccc2)C1 (configuration not stated)	-26%	.	4%	3

# Later entries.
SMILES,TRPV1 PAM,gsp ag,Menin-MLL FL inh,ClpP mod,Sfp inh,CtBP-E1A inh,gsp antagonist
COC(=O)c1ccccc1NC(=O)CSc1nnc(-c2ccc(OC)cc2)n1C,4,-21%,-0.1,-2.6%,7%,4,-1%
Cc1cc2c3c(c1)C(C)CC(C)(C)N3C(=O)C2=O (configuration not stated),-1,-31%[15.4 µM],-0.5,-1.8%,0%,3,5%
CCN(c1ccccc1)S(=O)(=O)c1ccc(Cl)c(C(=O)Nc2ccncc2)c1,.,-3%,.,-2.0%,.,1,.
COc1ccccc1C(O)(C(=O)NNc1ccccc1C)c1ccccc1OC,20,1%,-1.1,-0.3%,-1%,-15,2%
CCc1ccc(OCC(=O)Nc2ccc(S(=O)(=O)N3CCOCC3)cc2)cc1,-6,?,.,0.9%,.,4,0%
O=C(O)C1C(c2ccccc2)C(C(=O)N2CCOCC2)C1c1ccccc1 (configuration not stated),1,8%,3.7,0.1%,9%,-1,10%
CC(=O)Nc1ccc(-c2nnn(CC(=O)Nc3ccc4c(c3)OCO4)n2)cc1Cl,16,-11%[15.4 µM],0.8,.,-4%,7,-11%
O=C(O)c1cccc(S(=O)(=O)N2Cc3ccccc3C2)c1,18,?,-0.8,1.2%,20%,-2,3%
CCOC(=O)/C(=N\Nc1cccc(C(F)(F)F)c1)N1CCOCC1,-2,-31%[inhibitor],-0.2,1.3%,-1%,10,-6%
CC(C)C(NC(=O)c1ccco1)C(=O)NCC(c1ccco1)N(C)C (configuration not stated),11,3%,0.1,-2.7%,4%,7,5%
O=C(COc1cccnc1[N+](=O)[O-])Nc1ccc2c(c1)CCC2,-13,-4%,-1.6,-0.2%,3%,4,-19%
O=C(Nc1ccc(Cn2nnc3ccccc32)cc1)c1ccco1,-6,0%,2.4,?,-9%,-15,-6%
COc1ccc(Cl)cc1NC(=O)CN(C)C(=O)c1cc(=O)c2ccccc2o1,13,-2%,.,-2.9%,.,?,-22%
CCC(=O)Nc1ccc2c(c1)Cc1cc([N+](=O)[O-])ccc1-2,.,3%,.,-19%,.,-2,4%
CN1CCCC(OC(=O)c2cccc(Cl)c2)C1 (configuration not stated),-9,28%,5.2,.,16%,0,15%
CN(C)Cc1ccccc1C1(O)c2ccccc2CSc2ccccc21 (configuration not stated),-7,-54%[inhibitor],2.9,1.1%,4%,18,-14%[15.4 µM]
Cc1ccc2c(c1)C1CN(C)CCC1N2C(=O)c1ccccc1NS(=O)(=O)c1ccc(F)cc1C (configuration not stated),0,-21%,2.2,1.3%,-4%,-20,1%
Cc1c(NC(=O)C(C)OC(=O)c2c3c(nc4ccccc24)CCC(C)C3)c(=O)n(-c2ccccc2)n1C (configuration not stated),.,1%[15.4 µM],.,.,.,4,-5%
Cc1ccc(NC(=O)COc2cccc3ccc(C)nc23)c(Br)c1,-18,3%[15.4 µM],.,3.0%,-1%,-11,-32%
C=CCOc1ccc(/C=N/NC(=O)C2CCCC2)cc1OCC,4,-5%,-1.3,-6.6%,6%,-27,3%
COc1ccc(N2CCN(C(=O)c3csc4ccccc34)CC2)cc1,-5,16%,4.2,-3.2%,15%,-28,-26%
O=C(CCC(=O)N1CCc2ccccc2C1)NCCc1ccc(Cl)cc1,-7,-64%[inhibitor],-3.7,-2.6%,7%,-10,-4%
OCCSc1c(F)c(SCCO)c(SCCO)c(F)c1SCCO,8,-4%,-1.4,1.6%,-1%,1,-6%
O=C(c1ccc2snnc2c1)N1CCCCC1,1,16%,3.7,2.2%,34%[activator],0,8%
CCCCN(CC)C(=O)CSc1nc2ccccc2c(=O)n1CC1COc2ccccc2O1 (configuration not stated),-9,0%,2.1,1.3%,11%,6,?
O=C(CC1SC(N2CCOCC2)=NC1=O)Nc1ccccc1F (configuration not stated),.,-58%[inhibitor],.,1.1%,.,.,5%
CN(C)S(=O)(=O)c1cccc(NC(=O)NCCCl)c1,-6,28%,-6.8,1.7%,1%,2,6%
COc1ccccc1CN(Cc1nc2ccccc2c(=O)[nH]1)S(=O)(=O)c1ccc2ccccc2c1,-33,1%,-2.5,-3.2%,-5%,12,-14%
O=C(NCc1cccnc1)c1ccc(COc2ccccc2Br)o1,-5,-36%[inhibitor],2.5,-0.1%,-6%,4,-5%
NC(=O)CSc1nnnn1CC(CC(=O)O)c1ccccc1 (configuration not stated),?,-9%,4.2,-2.9%,12%,2,9%
COc1cccc(/C=C2\SC(=S)N(c3cccnc3)C2=O)c1OC,9,37%[15.4 µM],2.4,.,-3%,1,.
CC(=O)c1cn(N(C)c2ncc(C(F)(F)F)cc2Cl)c(=O)[nH]c1=O,14,-23%,-0.2,.,-6%,7,6%
CCOC(=O)C1CCCN(C(=O)CCNS(=O)(=O)c2ccc(Br)cc2)C1 (configuration not stated),-1,?,.,0.1%,.,12,-26%
Cn1c(=O)[nH]c(=O)c2c1nc(N/N=C/c1ccncc1)n2Cc1ccc(Cl)cc1,14,-5%[15.4 µM],7.7,-0.7%,6%,6,8%
O=C(CSc1ccc(Cl)cc1)NNC(=O)c1ccco1,0,-1%,.,0.4%,25%,6,7%
Cc1ccc(Sc2c(CO)c(-c3ccccc3)nn2C)cc1,-3,-3%[15.4 µM],5.0,.,5%,5,-8%

# Next section, starting with the last 2 of the part before.
SMILES,TRPV1 PAM,gsp ag,Menin-MLL FL inh,ClpP mod,Sfp inh,CtBP-E1A inh,gsp antagonist
O=C(CSc1ccc(Cl)cc1)NNC(=O)c1ccco1,0,-1%,.,0.4%,25%,6,7%
Cc1ccc(Sc2c(CO)c(-c3ccccc3)nn2C)cc1,-3,-3%[15.4 µM],5.0,.,5%,5,-8%
CCCSC1=C(C#N)C(c2ccccc2OCC)CC(=O)N1 (configuration not stated),-12,7%,2.5,-7.0%,9%,-7,0%
Cc1ccc(N(CCC#N)C(=O)COC(=O)c2cc(C)no2)cc1,-2,-4%,.,-2.9%,.,-1,9%
O=C(NCCc1ccccc1)c1ccc(Cl)c(S(=O)(=O)N2CCOCC2)c1,-11,0%,-5.6,-2.3%,23%,-14,-2%
Cc1ccc(C(=O)OCC(=O)NC2CCCc3ccccc32)o1 (configuration not stated),-6,-40%[inhibitor],.,-1.9%,.,-5,11%
CC(=O)c1cccc(N(C(=O)CNC(=O)c2ccco2)C(C(=O)NC2CCCC2)c2ccco2)c1 (configuration not stated),22,-5%[15.4 µM],1.2,0.1%,12%,0,7%
